Bioassay records: PubChem, several laboratories
Mtb betalactam: beta-lactam sensitization of Mtb H37Rv, H37Rv; 330,000 compounds, 0.27% hits; inhibition, % at 25 µM; AID 434955, 2010; M. tuberculosis H37Rv growth with meropenem, percent inhibition; hits of this screen are not shown here;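 active = about 74% or more and at least 40 points above the plate without the antibiotic, then above 30% in a dose series; inconclusive = first-round hits that could not be retested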;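 also: growth measured after seven days incubation then overnight dye step; 0% = bacteria only wells and 100% = bacteria with antibiotic; twin plates without the antibiotic show which effects depend on it; some results filed as inactive read as strong as hits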
RecA splice inh: Mtb RecA intein splicing inhibitors, primary screen, biochemical, fluorescence, HTS. Protein RecA (Mycobacterium tuberculosis (strain ATCC 25618 / H37Rv)), P9WHJ3. cell-free RecA intein splicing. inhibition, %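 (about 9 µM by stock and volumes)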. 290,000 compounds, 0.75% hits; in the data active = inhibition above about 30%; inconclusive = no clear call, values can overlap the other calls;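 also: 0% = vehicle wells and 100% = reference inhibitor control wells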
Target sequence (P9WHJ3 whole entry, looked up, canonical isoform): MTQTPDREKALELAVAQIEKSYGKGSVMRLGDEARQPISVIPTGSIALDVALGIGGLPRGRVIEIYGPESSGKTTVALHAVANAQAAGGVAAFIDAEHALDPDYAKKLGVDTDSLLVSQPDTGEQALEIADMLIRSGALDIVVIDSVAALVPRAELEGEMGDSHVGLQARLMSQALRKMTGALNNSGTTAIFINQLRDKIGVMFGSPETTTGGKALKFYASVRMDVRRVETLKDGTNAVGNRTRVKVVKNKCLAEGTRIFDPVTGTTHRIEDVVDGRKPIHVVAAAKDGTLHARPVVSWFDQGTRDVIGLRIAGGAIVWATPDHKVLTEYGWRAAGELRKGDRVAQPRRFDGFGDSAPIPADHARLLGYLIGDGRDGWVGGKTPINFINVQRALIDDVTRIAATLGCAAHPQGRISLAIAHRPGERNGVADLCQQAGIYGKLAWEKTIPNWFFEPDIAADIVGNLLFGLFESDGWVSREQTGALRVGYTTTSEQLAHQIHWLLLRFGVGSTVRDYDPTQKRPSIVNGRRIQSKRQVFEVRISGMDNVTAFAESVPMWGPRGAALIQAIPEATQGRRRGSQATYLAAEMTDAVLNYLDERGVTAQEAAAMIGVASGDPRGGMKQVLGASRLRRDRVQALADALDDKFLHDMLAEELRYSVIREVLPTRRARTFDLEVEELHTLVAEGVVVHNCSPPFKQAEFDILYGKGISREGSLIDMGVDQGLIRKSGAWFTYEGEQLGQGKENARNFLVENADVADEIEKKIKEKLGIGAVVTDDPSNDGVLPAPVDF
Arbovirus inh: antivirals against arbovirus infection, primary screen, cell-based, full library, 10K replicate subset; arbovirus infection cell-based antiviral screen; inhibition, % at 10 µM; 200,000 compounds, 0.37% hits;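 active = inhibition from about 30%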;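 also: bluetongue infection of BSR cells; cell survival read as ATP light after 72 h; 0% = infected wells without compound and 100% = uninfected wells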
Mtb H37Rv: M. tuberculosis H37Rv growth inhibitors, H37Rv strain (AID 1626); M. tuberculosis H37Rv growth inhibition; higher % means a stronger effect; inhibition, % at 10 µM, or IC50 in µM where a hit was titrated; 220,000 compounds, 0.95% hits;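 active = confirmed in a dose series; inconclusive = inhibition above 80% but not taken into the dose series; inactive = below 80% or under 30% at every dose of the series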;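 also: bacteria incubated seven days before Alamar blue readout; 0% = bacteria only wells and 100% = bacteria with antibiotic wells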
YopH inh: YopH tyrosine phosphatase inhibitors, primary screen, biochemical, fluorescence Ex485/Em525. inhibition, %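 (about 10 µM by stock and volumes)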. 140,000 compounds, 0.16% hits. AID 898, 2007;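 active = inhibition of 50% or more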;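 also: controls were vehicle for no effect and minimum signal wells for full effect; inactives centre near -20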
Starred values were filed as active, the others as inactive; u = inconclusive; x = not tested or not shown. Not all compounds are listed, so the mix of outcomes need not match the whole.

canonical_smiles	Mtb betalactam	RecA splice inh	Arbovirus inh	Mtb H37Rv	YopH inh
Cn1c(CSc2nc3ccccc3n2C)nc2ccccc21	5	-0.3	7	0%	-37
COc1ccc2nc(Nc3sc4c(c3C(N)=O)CCCC4)sc2c1	86	x	-10	1%	0
CCC(Oc1ccccc1)C(=O)Nc1ccccc1N1CCCC1 (centres undefined)	95	4.2	x	x	x
CCCNS(=O)(=O)c1cccn1-c1ncc(C(F)(F)F)cc1Cl	0	1.2	0	0%	-11
Cc1cc(/C(N)=N/OC(=O)c2cccc(Cl)c2)no1	-4	-2.5	x	1%	x
O=c1[nH]c2ccccc2cc1CN(CC1CCCO1)S(=O)(=O)c1ccc(Cl)cc1 (centres undefined)	2	-0.3	x	x	x
Cc1ccc(Cl)cc1N1CCN(S(=O)(=O)c2ccc3c(c2)OCCO3)CC1	-8	7.2	6	4%	-25
CCOC(=O)c1cn(C2CC2)c2c(F)c(F)c(F)cc2c1=O	-2	-1.5	11	-2%	x
Cc1cc(N2CCN(c3ccc([N+](=O)[O-])c4cccnc34)CC2)c2ccccc2n1	5	0.3	-30	-11%	-25
Brc1cnc2nc(SCc3nc4ccccc4[nH]3)[nH]c2c1	24	3.6	x	u	x
COc1cccc(N2CCN(C(=S)Nc3cccc(C)c3)CC2)c1	-19	0.0	5	-3%	-38
O=C(CSc1nnnn1-c1ccc2c(c1)OCCO2)N1CCc2ccccc21	0	-0.9	-11	-9%	-27
CC(C)NS(=O)(=O)c1ccc(CCC(=O)N2CCOCC2)cc1	-5	1.4	5	-6%	-56
Nc1ccc2c(c1)C(=O)c1ccccc1-2	97	1.5	x	x	x
COC(=O)c1ccccc1NC(=O)CN1CCC(n2nnc3cc(C(F)(F)F)ccc32)CC1	-10	-0.5	32*	x	4
Cc1nc(C)c(-c2csc(Nc3ccc(S(N)(=O)=O)cc3)n2)s1	7	-0.1	x	x	x
Cc1cccc(NC(=O)c2cc(-c3cccnc3)nc3c(C)cccc23)n1	5	-0.7	x	x	x
O=c1c2cc(Br)ccc2[nH]c(=S)n1Cc1cccnc1	100	-3.9	1	x	-23
O=C(Cc1cccs1)Nc1cccnc1	1	1.8	1	-11%	-27
Cc1[nH][nH]c(=O)c1C(c1ccc(-c2ccc(Cl)cc2Cl)o1)c1c(C)[nH][nH]c1=O	x	x	8	42%	-33
COc1ccc(CNC(=O)[C@H](C)NC(=O)C2CCN(S(=O)(=O)c3ccc(C)cc3)CC2)cc1	-5	2.1	-3	5%	-12
COc1cccc(C2/C(=C(/O)c3cnn(-c4ccccc4)c3C)C(=O)C(=O)N2CCN(C)C)c1 (centres undefined)	-2	-1.3	-4	x	-20
Cc1ccc(Cn2c(SCC(=O)N/N=C/c3ccc(C)o3)nc3ccccc32)cc1	-5	0.6	-11	12%	-8
Cc1ccccc1NC(=S)NCCC(c1ccccc1)c1ccccc1	-13	18	-44	9%	-18
CC(=O)Nc1cccc(NC(=O)CSc2nc(=O)n(Cc3ccccn3)c3c2CCC3)c1	3	-2.1	x	x	x
COC(=O)Cn1c(=NC(=O)c2ccc(S(=O)(=O)N3CCc4ccccc4C3)cc2)sc2cc(OC)ccc21	16	-2.1	-3	-6%	-19
CCOC(=O)C1(CCCc2ccccc2)CCN(C(=O)[C@@H]2C[C@@H](C)NC(=S)N2)CC1	-5	3.3	-7	-1%	x
O=C1CSC(=S)N1c1ccc(F)cc1	-4	6.2	x	x	x
O=C(Nc1ccc(F)c(Cl)c1)C1CC(=O)N(Cc2ccccc2)C1 (centres undefined)	-13	4.2	x	x	x
CN(C1CCCCC1)S(=O)(=O)Cc1ccccc1	x	-1.9	0	-12%	-19
CC(=O)c1ccc(NC(=O)C[n+]2ccccc2)cc1	-9	1.6	x	x	x
COC(=O)c1nn(-c2ccccc2)c(=O)cc1O	-4	-0.9	22	6%	x
C/C(=N\NC(=O)c1cc(C)nc2ccc(C)cc12)c1ccncc1	-2	1.0	x	x	x
O=C(N1CCN(c2ccccc2)CC1)C12CC3CC(CC(C3)C1)C2	-8	2.7	-13	7%	-24
O=C(CN1CCN(Cc2ccccc2)CC1)c1ccc(Br)cc1	x	x	-1	x	-37
O=C(O)CCC(=O)Nc1ccc(Br)cc1C(=O)c1ccc(Cl)cc1	-7	3.0	x	-6%	x
Cc1ccc(N2C(=O)C3C4C=CC(CC4)C3C2=O)cc1[N+](=O)[O-] (centres undefined)	0	1.8	x	x	x
COc1ccc(NC(=S)Nc2ccc3cn[nH]c3c2)cc1	2	18	2	-3%	x
CC(CCc1ccc(O)cc1)N1CCC(Oc2ccc(C(=O)N3CCCC3)cc2)CC1 (centres undefined)	0	3.7	x	x	x
Cc1cc(NC(=O)c2ccc(Cl)c([N+](=O)[O-])c2)no1	0	0.2	x	-8%	x
CCCCNC(=O)C1Cc2cc(S(=O)(=O)N3CCCCC3)ccc2N1C(C)=O (centres undefined)	-1	0.8	x	x	x
CC(C)(C)c1ccc(CNc2cc(N3CCOCC3)ccc2[N+](=O)[O-])cc1	19	-0.9	-12	15%	-31
N/C(CSc1ncccc1C(F)(F)F)=N\O	-2	0.4	x	-1%	x
CCOC(=O)N1CCC(n2c(=S)[nH]c3cc(OC)c(OC)cc3c2=O)CC1	u	-0.4	-4	1%	-10
C=CCNC(=S)N1CCN(CCN=CC2=C(O)CC(c3ccco3)CC2=O)CC1 (centres undefined)	-8	1.0	-2	-5%	-6
COCCCn1c(=O)/c(=C\c2ccc(OC(F)F)c(OC)c2)s/c1=C(/C#N)C(N)=O	12	-9.1	x	4%	x
O=C(NCc1ccccc1)NC(=O)c1ccccc1	-1	0.8	0	-3%	-13
Nc1cc(OC(=O)c2ccc(F)cc2)nn1S(=O)(=O)c1ccc(F)cc1	-4	2.9	x	x	x
Nc1ccccc1OCCOCCOCCOc1ccccc1N	0	0.9	-11	-12%	-18
COc1ccccc1CCNC1C2CC3CC(C2)CC1C3 (centres undefined)	-1	1.2	-7	0%	-24
CC(NS(=O)(=O)c1ccc(OCC(=O)NCc2cccnc2)cc1)c1ccccc1 (centres undefined)	1	0.8	x	x	x
S=C1NC[C@H](c2ccccc2)N1CC1CCCCC1	-5	2.3	11	3%	x
COc1ccc(C(C(=O)NC2CCCC2)N(Cc2ccccc2)C(=O)CNC(=O)c2ccco2)cc1 (centres undefined)	4	0.7	-6	2%	6
COc1cccc(/C=C/C(=O)OC(C)C(=O)Nc2c(C)n(C)n(-c3ccccc3)c2=O)c1 (centres undefined)	-2	1.6	1	-2%	x
O=C(OCc1c(Cl)cccc1Cl)c1cccnc1	0	4.9	-2	1%	-1
COc1ccc(S(=O)(=O)N2CN3CCN(C3)C2)cc1OC	2	0.1	x	x	x

Continued.
canonical_smiles	Mtb betalactam	RecA splice inh	Arbovirus inh	Mtb H37Rv	YopH inh
Cc1cccc(-c2nsc(SCC(=O)Nc3ccc4c(c3)OCO4)n2)c1	98	-2.4	4	u	-23
Cc1ccc(C(OCC(O)CNC(C)c2ccccc2)c2ccccc2)cc1 (centres undefined)	10	9.7	-29	-5%	x
COc1ccc2nc(N/C(N)=N/C(=S)Nc3cccc(C)c3)nc(C)c2c1	94	-1.2	6	9%	-35
O=C(/C=C/c1ccc(Cl)cc1)NC(=S)Nc1ccccc1C(=O)O	-2	0.8	x	4%	x
COc1ccc(/C=N\NC(=O)COc2ccccc2)c(C(=O)O)c1OC	-12	-1.2	0	-12%	-29
CCn1ncc(Cl)c1C(=O)NC(C)c1ccccc1 (centres undefined)	9	-0.5	6	6%	1
Cc1ccccc1NC(=O)CSCCN1C(=O)c2ccccc2C1=O	-3	-4.6	-3	-13%	-18
O=C1C2C3C=CC(C3)C2C(=O)N1c1n[nH]c(CCc2ccccc2)n1 (centres undefined)	-1	0.9	5	-4%	-14
CCOC(=O)CSc1ccc2nnc(-c3cccs3)n2n1	0	-1.6	1	6%	-19
O=C(NCC(c1cccs1)N1CCOCC1)c1cc(=O)[nH]c2ccccc12 (centres undefined)	-12	0.5	x	x	x
CC1(C)C2CC=C(/C=N/NC(=O)c3ccccc3Br)C1C2 (centres undefined)	5	-1.7	-4	0%	-11
CNC(=O)C(=O)Nc1c(O)c2ccccc2[nH]c1=O	-5	1.0	x	0%	x
CC1(C)CC(N2CCC(=O)NC2=S)CC(C)(C)N1	-3	-2.1	x	x	x
COc1ccccc1N(C(=O)CNC(=O)c1ccco1)C(C(=O)NCC1CCCO1)c1ccccc1 (centres undefined)	-5	0.4	x	x	x
Cc1ccc(N2CC(=O)N(NC(=O)Nc3ccc(Cl)c(Cl)c3)CC2=O)cc1	-9	-0.5	x	-6%	x
O=C(NC(NNc1ccc([N+](=O)[O-])cc1)(C(F)(F)F)C(F)(F)F)c1ccc(F)cc1	1	-10	-29	76%	-11
Cc1cc(C)c2c(c1)SC1=NC(c3ccccc3)(C(F)(F)F)NC(=O)N12 (centres undefined)	-6	7.8	-1	-4%	-21
O=c1[nH][nH]cc1C=Nc1ccc(Cl)cc1Cl	4	-0.4	10	8%	x
CC(C)=CC(=O)Nc1ccc(S(=O)(=O)Nc2onc(C)c2C)cc1	3	-0.3	x	x	x
Cc1ccc(C(=O)N2CCN(c3ccc(F)cc3)CC2)cc1S(=O)(=O)N1CCCCC1	-2	0.0	x	x	x
O=C(O)c1ccc2c(c1)C(=O)N(c1ccccc1-c1ccccc1)C2=O	-1	-1.0	7	6%	x
CC(=O)n1cc([C@H]2C=C(C(=O)O)O[C@@H](OCCCCO)C2)c2ccccc21	-3	-0.8	-1	-10%	x
CC(C)CSC1=NSC2=NC(=O)/C(=C\c3coc4ccccc4c3=O)C(=N)N12	0	-5.3	52*	3%	x
CCOC(=O)c1ccc(NC(=S)NCCCn2ccnc2)cc1	5	0.1	-1	11%	x
CCCCN(CC)S(=O)(=O)c1ccc(C(=O)Nc2nnc(CSC)o2)cc1	x	-1.4	-24	-17%	-39
Cc1noc(C)c1CSCC(=O)Nc1ccccc1N1CCCCC1	1	8.7	x	x	x
Cn1c(=O)n(CCCOc2ccc(Br)cc2)c2ccccc21	3	7.1	6	10%	7
Cc1ccc2c(C)c(C(=O)Nc3ccc(S(=O)(=O)Nc4onc(C)c4C)cc3)oc2c1	u	1.2	x	x	x
CCOC(=O)CSc1cc(C)nc(NC(C)=O)n1	-7	0.3	11	-11%	-12
CCN(CC)S(=O)(=O)c1cc(C(=O)OCC(=O)c2ccc3c(c2)NC(=O)CO3)ccc1Cl	2	-1.9	-2	-5%	-18
CC(=O)c1cccc(NC(=O)Nc2ccccc2)c1	-2	-1.5	x	x	x
Cc1nc(OCc2c(C)noc2C)c2ccccc2n1	1	-0.7	18	-7%	x

Some of the entries above, set out differently.
> Cc1ccc2c(C)c(C(=O)Nc3ccc(S(=O)(=O)Nc4onc(C)c4C)cc3)oc2c1
- Mtb betalactam: u
- RecA splice inh: 1.2
- Arbovirus inh: x
- Mtb H37Rv: x
- YopH inh: x
> CCOC(=O)CSc1cc(C)nc(NC(C)=O)n1
- Mtb betalactam: -7
- RecA splice inh: 0.3
- Arbovirus inh: 11
- Mtb H37Rv: -11%
- YopH inh: -12
> CCN(CC)S(=O)(=O)c1cc(C(=O)OCC(=O)c2ccc3c(c2)NC(=O)CO3)ccc1Cl
- Mtb betalactam: 2
- RecA splice inh: -1.9
- Arbovirus inh: -2
- Mtb H37Rv: -5%
- YopH inh: -18

(further entries)
canonical_smiles	Mtb betalactam	RecA splice inh	Arbovirus inh	Mtb H37Rv	YopH inh
CN(C)CCNC(=S)NC1CCCCC1	-2	2.0	-1	6%	x
CCCC(=O)Nc1c(C)nn(C(=O)CCC)c1C	0	-1.1	5	-2%	-14
O=C(/C(Cl)=C/Nc1ccc(Br)cn1)C(F)(F)F	0	3.4	19	-1%	x
O=C(CCN1CCOCC1)NCC1COc2ccccc2O1 (centres undefined)	-5	-15	5	-11%	-14
O=C1OC(Cc2ccccn2)C(O)=C1C1=NCCCN1 (centres undefined)	-2	-1.1	-4	-1%	-6
COCCn1c(SC(C)C(=O)NC2CCCCC2C)nc2ccccc2c1=O (centres undefined)	-9	2.1	x	x	x
Cc1ccc(S(=O)(=O)Nc2ccc(Cl)cc2C(=O)c2ccccc2)cc1	4	10	22	4%	-10
CCOC(=O)CC(=O)CSc1n[nH]c(=O)[nH]c1=O	-1	-1.2	x	-2%	x
CC1=C([N+](=O)[O-])C(c2ccc(O)c(O)c2)NC(=O)N1 (centres undefined)	3	-6.0	x	x	x
CCCN(CCC)Cc1c(C(=O)N/N=C/c2ccc(C)o2)nnn1-c1nonc1N	-1	-1.8	x	x	x
